# Source: PubChem
# TRPV1 PAM: enhances activation of the human vanilloid receptor TRPV1 | Q8NER1 | TRPV1-expressing cells, Fluo-8 calcium influx, capsaicin EC20 potentiation; host cell line not named in the record; control for the full effect not named in the record | potentiation, % at 8.33 µM | hit rate 0.02% among 320,000 | AID 540277; active means potentiation above 80%; inconclusive means 30% to 80%; inactive means below 30%; also: 0% is about no effect
#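 Cells expressing TRPV1 were dye-loaded with Fluo-8 and read kinetically: 10 s baseline, 3 min after compound (agonist portion), then 2 min after EC20 capsaicin (allosteric enhancer portion). Calcium-bound dye fluorescence at 480/520 nm.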
# Six1-Eya2 blk: inhibitors of human Six1/Eya2 interaction; Q15475+O00167; AlphaScreen GST-Six1/His-Eya2 binding, biochemical; active compounds read low; control for the full effect not named in the record; activity change, % (concentration not given with the values); hit rate 0.56% among 360,000; AID 651725; in the data active = activity change below about -65%; inconclusive = about -30% to -65%; inactive = above about -30%; also: % is scaled to controls: 0 for no effect and ±100 for the full control effect
#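 Six1/Eya2 binding was read as AlphaScreen signal after compounds were pinned into GST-Six1 plus His-tagged Eya2 (5X stock 250/500 nM) in pH 8.0 Tris/NaCl/TCEP buffer, beads added, then incubated 1 h, 37 C, dark.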
# CtBP-E1A inh: CtBP/E1A binding inhibition; hit rate 0.49% among 340,000; AlphaScreen GST-E1A/His-CtBP binding, 1536-well; active compounds read low; control for the full effect not named in the record; AID 651724; activity change, % (concentration not given with the values); in the data active means activity change below about -65%; inconclusive means about -30% to -65%; inactive means above about -30%; also: % is scaled to controls: 0 for no effect and ±100 for the full control effect
#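 GST-E1A and His-tagged CtBP (125 nM each as 5X stock) were preincubated with pin-transferred compound for 2 h at 37 °C in the dark, then glutathione donor and nickel acceptor beads were added for 1 h before AlphaScreen reading.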
# PINK1 expr mod: modulators of PINK1 expression. PINK1 immunofluorescence, high-content cytometry, 24 h. Potency, µM (titrated, usually from 76.6 µM), inactives show at the highest dose activation (PINK1 increase), hits mostly activators. hit rate 0.2% among 410,000. AID 624263; active = well fitted activation curve with a large enough effect; inconclusive = small, poorly fitted or top-dose-only effect; inactive = flat fitted curve, though single readings scatter; cell line not stated here;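 also: potency is read from the fitted curve at half-maximal effect; % of control where 0% means no effect; nearly all actives have a fitted effect of over 65% in size; a mitochondrial uncoupler was the plate control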
#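 Readout is PINK1 immunofluorescence, quantified alongside mitochondrial, cell and nuclear markers by laser-scanning microplate cytometry. Cells from a stable line were exposed to compound titrations (5 concentrations) for 24 hours, with CCCP controls.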
# D2 PAM: positive allosteric modulators of human D2 dopamine receptor; P14416; AID 624464; potentiation, % (test concentration not listed); DiscoveRx D2 beta-arrestin cells, luminescence, 90 min; 100% = 57 uM dopamine signal; hit rate 0.23% among 360,000; active = potentiation of 50% or more; inconclusive = 30% to 50%; inactive = 30% or less;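 also: compound concentration not given in the record; tested on top of an EC20 dose of dopamine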
# Target sequence (P14416 whole entry, looked up): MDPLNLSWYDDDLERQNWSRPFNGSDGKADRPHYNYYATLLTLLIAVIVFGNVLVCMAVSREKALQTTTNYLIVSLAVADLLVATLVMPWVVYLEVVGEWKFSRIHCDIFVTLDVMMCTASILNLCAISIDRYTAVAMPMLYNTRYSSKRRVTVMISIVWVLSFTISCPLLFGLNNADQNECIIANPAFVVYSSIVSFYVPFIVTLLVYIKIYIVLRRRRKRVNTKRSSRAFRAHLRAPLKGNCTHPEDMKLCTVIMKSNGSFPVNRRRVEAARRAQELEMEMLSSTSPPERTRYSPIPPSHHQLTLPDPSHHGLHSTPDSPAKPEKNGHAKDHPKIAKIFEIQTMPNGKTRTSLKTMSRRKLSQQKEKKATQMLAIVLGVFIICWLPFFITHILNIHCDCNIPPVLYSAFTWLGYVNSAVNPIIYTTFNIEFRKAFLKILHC
#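 PathHunter beta-arrestin assay in DiscoveRx D2 cells. Compounds were added with an EC20 of dopamine (50 nM final) for 90 min at 37 deg C. Luminescence was read 1 h after detection reagent, with 57 uM dopamine as the EC100 control.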
# D2 agonist: human D2 receptor agonism in beta-arrestin assay. activation, % (test concentration not listed). hit rate 0.084% among 360,000. AID 624465. P14416. DiscoveRx PathHunter D2 beta-arrestin, luminescence, 90 min; 100% = 57 uM dopamine signal; in the data active = activation above about 40%; inconclusive = about 15% to 40%; inactive = below about 15%; also: compound concentration not given in the record; the text of the record calls up to 30% inactive
#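 Agonist mode: compounds alone added to overnight-plated D2 PathHunter cells for 90 min at 37 C, with 57 uM final dopamine (EC100) defining full response. Beta-arrestin recruitment detected by chemiluminescent reagent, read after 1 h at ambient temperature.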
# Sfp PPTase inh: blocks B. subtilis Sfp PPTase activity. Potency, µM, for the others: max response, negative = inhibition, actives largely listed as inhibitors. Q9F4F7. AID 1490. Biochemical Sfp PPTase activity, qHTS. hit rate 3.5% among 310,000; active = well fitted inhibition curve with a large enough effect; inconclusive = small, poorly fitted or top-dose-only effect, or another doubt; inactive = no such curve, though single readings can be large or run the other way;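 also: the enzyme is Sfp with the accession as filed and its product quenches rhodamine fluorescence; potency is read from the fitted curve at half-maximal effect; 0% = enzyme reaction without inhibitor and -100% = no enzyme wells; top concentration of the series not given in the record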
#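 Compounds were incubated with enzyme (final 15 nM) for 15 min at room temperature before substrate addition started the reaction. Fluorescence at 525 nm excitation, 598 nm emission was recorded immediately and after 30 minutes.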
# An asterisk follows results filed as active; ? = inconclusive; . = no result given; & = joins results of further samples; [ ] = remark or other dose. No enrichment for hits, and some 3.7% of all compounds hit somewhere here.
mol	D2 agonist	TRPV1 PAM	Six1-Eya2 blk	CtBP-E1A inh	PINK1 expr mod	Sfp PPTase inh	D2 PAM
CC(C)C(NS(=O)(=O)c1ccc2c(c1)oc(=O)n2C)C(=O)N1CCN(C2CCCCC2)CC1 (centres undefined)	-1.1	0	0	8	0.7%	-8%	-3
CCOC(=O)N/N=C\c1ccc(C)s1	-3.3	-6	9	8	-0.2%	-7%	-4
CN1CCN(NC(=O)C23CC4CC(CC(C4)C2)C3)CC1	-4.9	-2	-12	-21	0.7%	23%	1
COc1cccc(NC(=S)N/N=C2/CCCCc3ccccc32)c1	-14	0	-21	?	0.6%	-6%	-16
COc1ccc(-c2nc3c(C)cc(Br)cn3c2Cc2ccc(C)cc2)cc1OC	-2.5	.	3	7	23%	.	1
CN(C(=O)c1ccc(=O)[nH]c1)C1(C(=O)NC2CCCCC2)CCCCC1	-0.3	-7	7	4	-1.6%	23%	-15
CCCCn1c(-c2csc3c2CCC(C)C3)n[nH]c1=S (centres undefined)	7.8	-14	-9	-6	0.9%[38.3 µM]	-28%	4
O=C(c1ccc(-c2ccccc2)cc1)N1CCN(c2ccc3c(c2)C2CC3CCN2C(=O)OCc2ccccc2)CC1 (centres undefined)	-4.3	.	-23	?	-1.1%	.	-8
CC(C)c1ccc(NC(=O)C2C3C=CC4(O3)C2C(=O)N(CCN2CCOCC2)C4C(=O)NC2CCCCC2)cc1 (centres undefined)	-3.9	12	-6	0	3.4%	6%	-7
COC(=O)Nc1ccc(S(=O)(=O)NC2CCCCC2)cc1	1.9	-3	-1	3	3.2%	-1%	10
O=C(O)/C=C/C(=O)Nc1cccc2c1-c1ccccc1C2=O	-4.8	.	-4	12	6.6%	.	-15
COc1cc(/C=C/C(=O)NC(C)C)ccc1OCc1ccccc1	-1.8	-27	16	-4	-0.3%	-22%	-12
NC(=O)c1sc2nc(-c3ccco3)ccc2c1N	-8.6	5	-26	21	-4.8%	5µM*	-3
CN(C(=O)CSCC(=O)O)C1CCCCC1	-1.2	9	9	0	-2.2%	-13%	8
Cc1nn(C)c(C(=O)N/N=C/c2cccnc2)c1Cl	1.0	29	-2	-3	1.5%	5%	-2
CCN1C(C(=O)c2ccccc2)=C(Nc2ccccc2C)c2ccccc2S1(=O)=O	0.5	0	?	?	3.0%	2%	-21
O=C(CCN1CCN(c2ccccc2)CC1)Nc1cccc(Br)c1	-0.8	-3	-18	-14	4.8%	15%	-8
CCOC(=O)C1=C(C)NC(C)=C(C(=O)OCC)C1C(=O)OCC(=O)N1CCOCC1	-4.3	.	2	-1	-0.6%	.	-23
COc1cccc(Nc2nc(NCCO)c3ccccc3n2)c1	0.4	3	-8	-10	-1.2%	20µM*	-5
CCOn1c(=O)c(-c2ccc(OC)cc2)[n+]([O-])c2ccccc21	-3.5	1	-7	0	4.5%	-1%	-2
O=C(CCc1ccccc1)Nc1nnc(-c2ccc3c(c2)CCCC3)o1	3.8	-10	1	2	4.2%	26%	-5
CC1CCCCC1NC(=O)c1cn(C)c2ccc(S(=O)(=O)N3CCOCC3)cc2c1=O (centres undefined)	4.3	-6	5	10	0.9%	17%	-1
O=C(CN1CCN(S(=O)(=O)c2cccs2)CC1)NCC1CCCCC1	7.0	28	5	6	0.7%	.	-2
COc1ccc(S(=O)(=O)N2CCNC(=O)CC2)cc1	0.0	0	7	.	-0.3%	14%	-6
CCN(CC)S(=O)(=O)c1ccc(C(=O)Oc2coc(CSc3nc(C)cc(C)n3)cc2=O)cc1	-1.2	0	-22	0	4.2%	13%	-11
COc1ccc2cc(C3C(C#N)=C(N)OC(C)=C3C(C)=O)c(Cl)nc2c1 (centres undefined)	-5.4	0	5	-8	3.1%	-2%	-20
OCCC1CN(Cc2cnc(-c3ccc(Cl)cc3)nc2)CCN1C1CCCC1 (centres undefined)	-2.2	0	-12	-5	15%	5%	-7
CCc1sc(C(=O)Nc2ncccc2C)cc1C	-3.8	7	9	6	5.3%	8%	2
CCOC(=O)N1CCN(CCC(=O)Nc2ccc(OC)cc2OC)CC1	-0.6	5	5	4	0.2%[38.3 µM]	30%[activator]	-33
O=C(Nc1ccccc1)c1cccc(N2C(=O)CCC2=O)c1	2.0	3	8	2	-3.0%	8%	-5
Cc1ccn2cc(CCNS(=O)(=O)c3ccc4c(c3)CCCC4)nc2c1	-4.2	12	-2	-5	1.3%	2%	-9
C=C(C)CN(CC)C(=O)CC1C(=O)NCCN1CC(C)(C)C (centres undefined)	-4.1	-8	-3	.	0.5%	3%	-9

# Part of the list above, with values under each structure.
# Below each SMILES – D2 agonist | TRPV1 PAM | Six1-Eya2 blk | CtBP-E1A inh | PINK1 expr mod | Sfp PPTase inh | D2 PAM
OCCC1CN(Cc2cnc(-c3ccc(Cl)cc3)nc2)CCN1C1CCCC1 (centres undefined)
→ -2.2 | 0 | -12 | -5 | 15% | 5% | -7
CCc1sc(C(=O)Nc2ncccc2C)cc1C
→ -3.8 | 7 | 9 | 6 | 5.3% | 8% | 2
CCOC(=O)N1CCN(CCC(=O)Nc2ccc(OC)cc2OC)CC1
→ -0.6 | 5 | 5 | 4 | 0.2%[38.3 µM] | 30%[activator] | -33
O=C(Nc1ccccc1)c1cccc(N2C(=O)CCC2=O)c1
→ 2.0 | 3 | 8 | 2 | -3.0% | 8% | -5
Cc1ccn2cc(CCNS(=O)(=O)c3ccc4c(c3)CCCC4)nc2c1
→ -4.2 | 12 | -2 | -5 | 1.3% | 2% | -9

# Next part.
mol	D2 agonist	TRPV1 PAM	Six1-Eya2 blk	CtBP-E1A inh	PINK1 expr mod	Sfp PPTase inh	D2 PAM
CCOC(=O)CN(C(=O)CN1CCC(n2nnc3cc(C)ccc32)CC1)c1ccccc1	-2.1	-2	1	3	-1.1%	-21%	-25
O=C(CCS(=O)(=O)c1ccccc1F)Nc1ccc(N2CCN(Cc3ccccc3)CC2)cc1	-1.4	?	-5	-2	-0.6%	.	-4
CC(=O)NNc1ncnc2c1cnn2-c1ccc(C)cc1	-6.0	15	11	-6	0.6%	16%	-6
Cc1ccc(-c2c(C(=O)NCc3ccccc3)oc(=O)c3ccccc23)cc1	-1.3	4	4	9	-0.4%&0.8%	-1%	-23
O=C1c2cccnc2-c2ncccc21	-2.9	8	-8	-5	-2.6%	-3%	-1
CCOc1ncccc1C(=O)N(C)CC(=O)Nc1ccc(C)cc1	-0.8	4	12	12	-1.7%	15%	-18
CC(C(=O)Nc1ccc2c(c1)OCO2)c1ccc([N+](=O)[O-])cc1 (centres undefined)	-22	2	-4	-5	0.3%	0%	-3
Cc1cccc(NC(=O)Nc2ccc3c(c2)OCO3)n1	-3.1	-4	-5	.	0.1%	5%	-5
CC(C)CCn1nnnc1C(C(C)C)N1CCC(C(N)=O)CC1 (centres undefined)	-2.3	22	6	3	0.7%	1%	-6
COc1ccc2c(c1)-c1nc(N)sc1CC2	?	7	-23	-7	0.6%	-13%	9
Cc1nc(S/C(=C/c2ccc(-c3cc(Cl)ccc3C)o2)C(=O)O)n[nH]1	-0.2	-15	-4	-6	-0.9%	?	-6
Cc1cc(NC(=O)CCC(=O)N(c2cccc(F)c2)C(C(=O)NC2CCCC2)c2ccccc2)no1 (centres undefined)	-3.3	10	5	-9	11%	16%	-9
CCOC(=O)C1=C(c2ccccc2)N=c2sc(=Cc3cc(OC)c(OC)c(OC)c3)c(=O)n2C1c1cccs1 (centres undefined)	-2.9	.	46	-12	5.4%	.	-8
Fc1ccc(CSc2nnc3ccc(-c4ccncc4)nn23)cc1	-0.5	-12	0	1	-0.7%	6%	0
O=C1CC(N2CCOCC2)C(=O)N1CCN1C(=O)CC(N2CCOCC2)C1=O (centres undefined)	-0.6	-4	0	3	-0.4%	4%	4
Cc1ccc(S(=O)(=O)n2nc(OC(=O)c3ccco3)cc2N)cc1	-4.5	.	-8	7	-0.3%	.	-7
Cc1cccc(NC(=S)N2CCC(C(=O)c3ccc(F)cc3)CC2)c1C	-1.3	0	11	83	4.9%[38.3 µM]	17%	-20
O=C(NCCOC(=O)c1ccc(Cl)cc1)c1cccnc1	-1.2	-14	2	54	0.8%[38.3 µM]	3%	-3
COc1ccccc1NC(=O)C(C)N1C(=O)C2CCCCC2C1=O (centres undefined)	7.2	10	6	5	0.6%	.	-4
CN(c1ccccc1)c1ccc(/C=N/NC(=O)CC#N)cc1	-0.3	9	15	3	2.9%	-2%	-11
Cc1ccc(S(=O)(=O)N(C)C[C@@H]2OCc3cn(nn3)CCCC(=O)N([C@H](C)CO)C[C@H]2C)cc1	-4.2	.	8	-4	3.4%	.	-9
COc1ccc2c(c1)CCc1cc(C(=O)N3CCN(c4ccc(N5CCOCC5)nn4)CC3)sc1-2	7.0	11	-20	-17	2.4%	-8%	18
COc1ccc(/C=C2/Sc3ccc(C(=O)N4CCOCC4)cc3NC2=O)cc1OC	-2.7	6	0	5	1.9%	14%	0
Cc1ccc(-c2nc(-c3ccc(Cl)cc3)sc2CC(=O)O)c(C)c1	-2.6	1	-5	.	2.7%	6%	-6
Cc1ccc(S(=O)(=O)NCCNC(=O)C2CCCNC2=O)cc1 (centres undefined)	-4.2	-23	1	12	-0.6%	8%	26
O=C(CCCc1ccccc1)NCCCc1ccccc1	0.6	17	8	3	-0.8%	-1%	-16
Cc1ccccc1/C(N)=N/OC(=O)c1ccc(F)cc1	4.1	1	14	.	-0.5%	10%	8
O=C(/C=C/c1ccc(F)cc1)N1CCN(Cc2ccccc2)CC1	0.0	.	-4	-1	1.6%	.	-16
Cc1ccc(S(=O)(=O)NCCCCCC(=O)NCCc2ccccc2)cc1	-3.0	-10	-6	.	-0.4%	16%	4
O=C1c2ccccc2[C@@H]2C[C@@H](O)[C@H](Nc3cccc(Cl)n3)CCN12	9.5	.	4	-2	0.7%	.	.
O=C(COc1ncnc2ccccc12)c1ccc(Cl)cc1	-5.7	-10	2	-4	2.2%	17%	2
O=C(CN1CCN(Cc2ccc(F)cc2)CC1)NCCc1ccccc1	-2.7	-10	3	-1	-1.0%	22%	-5
C/C(=N\NC(=S)NCc1ccccc1)c1ccccc1F	1.1	0	-14	-12	4.0%	15%	-9
